LMNA splice mod: changes lamin A minigene splicing in HeLa cells; HeLa LMNA splicing GFP/RFP minigene ratio, 48 h; Potency, µM (series often up to 46.1 µM), for inactives: top-dose ratio change, negative = inhibition, actives largely listed as inhibitors; hit rate 0.01% among 200,000; active means well fitted inhibition curve with a large enough effect in the signal ratio, with a control signal flat, not every such curve was filed as active; inconclusive means small, poorly fitted or top-dose-only effect, or effect the other way, or a change in a side signal; the % refers to the signal ratio; further: on the % scale 0 is the no-effect control and ±100 the full control effect
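Read-out is the ratio of GFP to DsRed2 object intensity, acquired by 488 nm laser-scanning cytometry on HeLa lamin A-EGFP minigene reporter cells. Compound incubation 48 hrs at 37 °C in Opti-MEM with 2% FBS; DMSO 0.5% final.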
GoLoco inh red: inhibitors of human Gai1-RGS12 GoLoco interaction (red fluorophore) | Gai1:RGS12 GoLoco peptide FP, rhodamine, 10 min | Potency, µM (doses to about 61.6 µM), for inactives: at the top dose activity, negative = inhibition, usual class: inhibitors | hit rate 0.44% among 230,000 | AID 880; active means well fitted inhibition curve with a large enough effect, not every such curve was filed as active; inactive means no such curve, though single readings can be large or run the other way; further: on the % scale 0 is the no-effect control and ±100 the full control effect; nearly all actives have a fitted effect of over 30% in size; many of its hits are not listed in these tables
Target sequence (P63096 whole entry, looked up): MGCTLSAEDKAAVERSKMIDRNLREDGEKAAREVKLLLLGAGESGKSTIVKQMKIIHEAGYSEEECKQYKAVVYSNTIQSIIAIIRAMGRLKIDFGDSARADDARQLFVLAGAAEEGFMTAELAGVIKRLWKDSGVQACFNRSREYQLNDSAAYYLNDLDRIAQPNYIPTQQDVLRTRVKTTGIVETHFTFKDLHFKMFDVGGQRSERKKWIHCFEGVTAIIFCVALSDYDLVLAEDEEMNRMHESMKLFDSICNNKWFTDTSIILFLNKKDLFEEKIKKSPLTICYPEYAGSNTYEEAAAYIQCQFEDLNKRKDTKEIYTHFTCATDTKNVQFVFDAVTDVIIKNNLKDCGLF
TexasRed fluor: counter-screen for TRb-SRC2 inhibitors: fluorescence interference. TRb/SRC2 Texas Red total fluorescence interference. Potency, µM (highest dose often 106 µM), inactives show at the top dose fluorescence change, negative = quenching. hit rate 0.29% among 280,000. AID 1479; active means well fitted curve in either direction with a large enough effect; inconclusive means small, poorly fitted or top-dose-only effect; further: on the % scale 0 is the no-effect control and ±100 the full control effect
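Human TRβ ligand-binding domain (0.6 uM) and Texas Red SRC2 peptide (20 nM) in Tris buffer with 1 uM T3 and 5% DMSO were incubated with pinned compound for 5 hr at ambient temperature. Total fluorescence was computed as S + 2P (555/632 nm).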
SMN2 splice enh: increases expression of the SMN2 splice variant; HEK293 SMN2-luciferase splicing reporter, luminescence, 30-36 h; Potency, µM (titrated, usually from 46.1 µM), for inactives: at the top dose activity change, positive = activation, actives largely listed as activators; hit rate 2.8% among 210,000; AID 1458; further: % of control where 0% means no effect; nearly all actives have a fitted effect of over 55% in size
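qHTS luciferase splicing reporter: luminescence rises when SMN2 exon 7 is included in transfected HEK293 cells. Compound exposure lasted 30-36 h at 37C, with 4.5 mM final sodium butyrate as control, followed by a ONE-Glo read.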
RECQ1 helicase: inhibitors of human RECQ1 DNA helicase. P46063. RECQ1 DNA unwinding, red fluorescence kinetic read. Potency, µM (highest dose often 57.3 µM), inactives show at the highest dose activity, negative = inhibition, most hits filed as inhibitors. hit rate 0.54% among 240,000. AID 2549;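 further: plate controls were vehicle for no effect and no enzyme for full effect; nearly all actives have a fitted effect of over 30% in size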
Target sequence (P46063 whole entry, looked up): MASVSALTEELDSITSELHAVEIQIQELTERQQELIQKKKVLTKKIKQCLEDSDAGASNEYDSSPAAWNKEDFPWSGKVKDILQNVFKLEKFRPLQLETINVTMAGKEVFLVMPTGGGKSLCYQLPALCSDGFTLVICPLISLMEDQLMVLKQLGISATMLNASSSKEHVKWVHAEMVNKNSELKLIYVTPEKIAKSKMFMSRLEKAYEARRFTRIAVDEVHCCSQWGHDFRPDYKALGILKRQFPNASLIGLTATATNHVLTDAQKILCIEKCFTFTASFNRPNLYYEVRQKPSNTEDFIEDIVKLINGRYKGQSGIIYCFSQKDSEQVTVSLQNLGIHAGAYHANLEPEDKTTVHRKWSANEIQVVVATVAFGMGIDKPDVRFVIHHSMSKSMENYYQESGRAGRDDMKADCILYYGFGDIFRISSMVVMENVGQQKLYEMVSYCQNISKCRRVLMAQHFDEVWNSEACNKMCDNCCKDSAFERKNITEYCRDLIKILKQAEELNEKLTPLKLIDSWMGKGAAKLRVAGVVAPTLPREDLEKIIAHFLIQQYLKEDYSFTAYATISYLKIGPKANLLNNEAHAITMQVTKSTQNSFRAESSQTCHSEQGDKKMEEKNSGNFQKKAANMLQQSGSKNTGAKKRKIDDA
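50 nM RECQ1T1 preincubated 15 min with compound in Tris pH 8.0 buffer with MgCl2, DTT, Tween-20 and 2.5 ug/ml poly(dI-dC); started with 200 nM TAMRA/BHQ-2 forked duplex and 2 mM ATP. Unwinding read as fluorescence (525/598 nm), two reads 2 h apart.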
ALDH1A1 inh: blocks purified human ALDH1A1 activity. AID 1030. Purified ALDH1A1, NADH fluorescence, propionaldehyde substrate. P00352. hit rate 7.3% among 220,000. Potency, µM (highest dose often 75.3 µM), inactives show at the top dose activity, negative = inhibition, most hits filed as inhibitors; active means well fitted inhibition curve with a large enough effect, not every such curve was filed as active; inconclusive means small, poorly fitted or top-dose-only effect, or another doubt; inactive means no such curve, though single readings can be large or run the other way;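 further: plate controls were no enzyme wells and a reference inhibitor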
TRb-SRC2 inh: disrupts binding of human TR beta to SRC2; TRbeta-SRC2 peptide binding, fluorescence polarization; receptor liganded with 1 µM T3; Potency, µM (top dose mostly 106 µM), for the others: at the highest dose activity change, negative = inhibition, most hits filed as inhibitors; hit rate 0.065% among 280,000; AID 1469;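 further: plate controls were bound peptide for no effect and peptide without receptor for full effect; nearly all actives have a fitted effect of over 50% in size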
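A fluorescence polarization screen tested compounds at multiple concentrations against complex formation between 0.6 uM TRb ligand-binding domain and 20 nM Texas Red SRC2 peptide, with 1 uM T3 present; readout after 5 hr.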
An asterisk follows results filed as active; i = inactive; ? = inconclusive; nt = no result given; [ ] = remark or other dose. Unless noted, the call rests on the fitted dose curve; in most records, active means well fitted curve in the direction sought with a large enough effect; inconclusive means small, poorly fitted or top-dose-only effect, or another doubt; inactive means no such curve, though single readings can be large; an effect the other way counts as inactive or inconclusive. Potency means the concentration at half of the fitted maximal effect. The list is partial, so the mix of outcomes need not match the whole.

SMILES | LMNA splice mod | GoLoco inh red | TexasRed fluor | SMN2 splice enh | RECQ1 helicase | ALDH1A1 inh | TRb-SRC2 inh
CCCn1c(C)cc(-c2csc(N)n2)c1C | 0% | 97%[activator] | 9% | -9% | ? | 11µM* | ?
CCC(C)NC(=O)c1ccc(C2SCC(=O)N2Cc2ccccc2)cc1 (configuration not stated) | 6%[46 µM] | 5% | -3% | nt | -8% | ? | -3%
O=C(NC(=S)Nc1nc2c(s1)CCCC2)c1ccccc1 | -17% | 5% | 1% | 2µM* | 3% | ? | 5%
C/C=C/c1ccc(OCCN2CCc3ccccc3C2)c(OC)c1 | -5% | 3% | 2% | -8% | -6% | ? | -1%
CCc1cccc2c(C(=O)COC(=O)/C=C/c3ccccc3OC)c[nH]c12 | ? | nt | -5% | nt | 3% | -12% | -2%
O=C(NNC(=O)c1ccccc1O)c1ccco1 | -1%[9.22 µM] | 6% | -1% | ? | -5% | 9% | -3%
CCOC(=O)/C(=C/c1ccc(OC(=O)c2ccncc2)cc1)C(C)=O | ? | -11% | 0% | 5% | i | ? | -7%
O=C(NCC1(c2ccccc2)CCCC1)C(=O)N1CCOCC1 | -17% | -10% | 0% | 4% | -3% | -5% | -3%
CCOC(=O)CSCC(=O)Nc1c(C(=O)C2CC2)oc2ccccc12 | -11% | 1% | -2% | 9% | -2% | -3% | -19%
S=C(NCc1cccs1)Nc1cccc2ccccc12 | -16%[46 µM] | 11% | -6% | ? | i | -15% | -5%
Cc1ccc(S(=O)(=O)NNC(=O)C(=O)NNc2ccccn2)cc1 | ? | 1% | -2% | -33%[inhibitor] | -13% | 10% | -7%
CCN(c1ccccc1)S(=O)(=O)c1ccc(OC)c(NC(=O)CNC)c1 | ? | 2% | -1% | ? | i | ? | 5%
COC(=O)c1c(NC(=O)CN2C(=O)NC(CCc3ccccc3)C2=O)sc2c1CCCCC2 (configuration not stated) | -24% | -7% | 4% | -22% | -9% | 20µM* | -3%
c1ccc(CSc2ccc3nnc(-c4cccnc4)n3n2)cc1 | -11% | -6% | -3% | 13% | -4% | -2% | 3%
COc1ccc(Cc2[nH]n3c(=O)cc(C)nc3c2-c2ccccc2)cc1 | nt | 24% | -1% | -79%[inhibitor] | i | 3% | 5%
CC1(OC(=O)CCc2ccccc2)C(=O)C=C2C=C(c3ccc(C#N)cc3)N(C3CC3)C=C2C1=O (configuration not stated) | ? | 7%[14.2 µM] | -4%[11.2 µM] | -1%[9.22 µM] | 10%[11.5 µM] | 3%[13.5 µM] | -2%[11.2 µM]
O=C(COC(=O)CCc1nc2ccccc2c(=O)[nH]1)NC(c1ccccc1)c1ccccc1 | nt | 10% | -2% | nt | 1% | nt | 6%
OC(COc1cccc2ccccc12)CN1CCN(c2ccccc2)CC1 (configuration not stated) | nt | -6% | -1% | nt | i | nt | 1%
CC1=Nc2cc(C(=O)NCCCOC(C)C)ccc2Sc2ccccc21 | nt | -13% | -6% | nt | -4% | 11% | -4%
Cn1cnc(Sc2ncnc3nc[nH]c23)c1[N+](=O)[O-] | nt | -37% | -5% | nt | -2% | nt | -4%
NC(=S)N/N=C1\CCOc2ccc(F)cc21 | nt | -3% | -2% | nt | -7% | ? | 0%
COc1ccc(CNN2CCCCC2C(=O)Nc2ccc(OC)c(OCC(C)C)c2)cc1OC (configuration not stated) | nt | -2% | -2% | nt | i | nt | -6%
Cc1ccc(NC2c3ncccc3C(=O)N2Cc2cccs2)cc1 (configuration not stated) | 23%[9.22 µM] | -4% | -2% | -3% | -5% | 28µM* | 0%
Cc1cccc(N2CCN(Cc3oc(CO)cc(=O)c3O)CC2)c1C | -2% | 6% | 1% | -14% | i | ? | 3%
COc1cccc(OC)c1OCC(O)CN1CCN(c2ccccc2)CC1 (configuration not stated) | 3% | -6% | -3% | -14% | -14% | 1% | -12%
O=C(NCC1CCCO1)c1cccnc1NCc1ccc(F)cc1 (configuration not stated) | nt | 12% | -2% | nt | -3% | ? | 3%
CCn1c(C)nc2cc(C(=O)N/N=C/c3ccc(N4CCOCC4)cc3)ccc21 | -15%[46 µM] | 63%[activator] | 4% | 11% | -3% | ? | -3%
COCCCNCCCOc1ccc(C(C)(C)c2ccccc2)cc1 | ? | -3% | -2% | ? | i | ? | 0%
Cc1c(C#N)c(N)nc2c3c(sc12)NC(=O)CC3c1ccccc1 (configuration not stated) | ? | 1% | -3% | ? | i | ? | 4%
CCN(CC)CCCNCC(=O)Nc1ccc(OC)c(Cl)c1 | nt | -3% | -5% | nt | -7% | nt | -6%
COc1cc(OC)c(OC)cc1CN1CCN(Cc2ccc(SC)cc2)CC1 | -20%[46 µM] | 0% | -2% | -28% | i | ? | -4%
Cc1nc2ccccc2c(=O)n1NC(=O)c1c(O)c2ccccc2n(C)c1=O | 1% | 0% | -3% | nt | i | 13% | -1%
COc1ccc(C(c2oc(CO)cc(=O)c2O)c2oc(CO)cc(=O)c2O)cc1 | nt | -17% | -2% | 23% | -3% | -2% | 1%
O=c1cc(O)c2ccccc2n1Cc1ccccc1 | 11%[46 µM] | 50%[activator] | 1% | -62%[inhibitor] | -2% | ? | -5%
COC(=O)CSc1nnc(-c2ccco2)n1-c1ccc(C)cc1 | 4% | -3% | 2% | -12% | i | 0% | -11%
Cc1ccc2c(C)c(C(=O)Nc3ccc(S(N)(=O)=O)cc3)oc2c1C | ? | 9% | 3% | -1% | i | -10% | 3%

Some entries already given, limited to RECQ1 helicase, SMN2 splice enh and ALDH1A1 inh.
Compound	RECQ1 helicase	SMN2 splice enh	ALDH1A1 inh
CCN(CC)CCCNCC(=O)Nc1ccc(OC)c(Cl)c1	-7%	nt	nt
COc1cc(OC)c(OC)cc1CN1CCN(Cc2ccc(SC)cc2)CC1	i	-28%	?

(continued)
SMILES | LMNA splice mod | GoLoco inh red | TexasRed fluor | SMN2 splice enh | RECQ1 helicase | ALDH1A1 inh | TRb-SRC2 inh
COCCCNCC(O)COc1ccccc1F (configuration not stated) | nt | -19% | 2% | -11% | -8% | ? | -4%
COC1CCCCC1Nc1ccc(C)c(C)c1 (configuration not stated) | ? | -20% | -1% | -3% | -6% | 10µM* | -3%
COc1ccc(OCC(=O)Nc2cccc(C(=O)Nc3ccccc3C(=O)O)c2)cc1 | 13% | 2% | -4% | 13% | -9% | 20µM* | 2%
O=C(CNCc1ccccc1Cl)Nc1ccc2c(c1)OCCO2 | nt | -18% | -3% | nt | 0% | 13µM* | 10%
Cc1ccc(CNC(=O)c2ccc3c(=O)n4c(-c5ccc(C)cc5)csc4nc3c2)cc1 | nt | -1% | -2% | nt | -6% | nt | 1%
CCOc1cc(/C=C(\C#N)C(=O)NCC2CCCO2)ccc1OCC(N)=O (configuration not stated) | 3%[46 µM] | 14% | -2% | nt | -1% | -14% | 2%
CCCCN1CCC(n2c(=O)[nH]c3ccccc32)CC1 | ? | 10% | -3% | ? | i | 21% | 7%
CCOC(=O)N/N=C\c1ccc(-c2cc(Cl)ccc2Cl)o1 | nt | 16% | -2% | -11% | 22% | -1% | 2%
COC(=O)c1cccc(NC(=O)c2cccnc2C(=O)O)c1C | nt | -5% | -2% | nt | 9% | ? | 4%
Cc1ccccc1N1C(=O)CSC1=C(C#N)C#N | ? | 203%[activator] | 26% | 11% | -22% | 3.5µM* | 28%
COC(=O)CCC(=O)OC1(C)C(=O)C=C2C=C(C3CC3)N(C3CC3)C=C2C1=O (configuration not stated) | ? | 1%[14.2 µM] | 0%[11.2 µM] | 1%[9.22 µM] | -1%[11.5 µM] | -8%[13.5 µM] | ?
CCC(=O)NC(=S)Nc1ccc(-c2nc3ccc(C)cc3s2)cc1 | -11% | nt | -2% | nt | 1% | -4% | -2%
O=C(CSc1nnc(C2COc3ccccc3O2)o1)Nc1nccs1 (configuration not stated) | -21% | 2% | 0% | 7% | -3% | 10% | 9%
O=C(/C=C/c1ccco1)OCc1nnc(-c2ccc(Cl)cc2)o1 | ? | 35%[activator] | 1% | -22% | ? | 25µM* | 9%
CCOc1cccc(-c2cc(=O)[nH][nH]2)c1 | 0% | 0% | -1% | -8% | 18% | 2% | ?
Cc1c(/C=N/NC(=O)CNc2ccccc2)c2ccccn2c1C(=O)c1ccc(Cl)cc1 | -7% | nt | 2% | nt | -21% | ? | -1%
CCCCCCc1nc2ccccc2c(=O)n1NC(=O)c1c(O)c2c(n(CC(C)C)c1=O)CCCC2 | ? | 13% | 2% | nt | 0% | ? | 7%
O=C(CC1C(=O)NCCN1Cc1ccoc1)NCCCn1ncc2ccccc21 (configuration not stated) | 3%[46 µM] | 8% | -5% | nt | 11% | ? | -4%
Cc1ccc(S(=O)(=O)N2CCN(Cc3ccccn3)CC2)cc1 | 7%[46 µM] | -3% | 0% | nt | -9% | ? | -1%
COc1cccc2c1OCC([C@@H]1C[C@H]3CN(Cc4cccc(Cl)c4)C(=O)[C@]34CCCN14)=C2 | nt | 25% | 1%[53 µM] | nt | i | 0% | 6%[53 µM]
O=c1cc(CO)oc(C(Nc2ccccn2)c2ccc(C(F)(F)F)cc2)c1O (configuration not stated) | -11% | -7% | -2% | 10% | -4% | ? | 4%
Cc1nc(NC(=O)c2oc3ccccc3c2C)sc1C(=O)N(C)C | 7% | 23% | 1% | 10µM* | -5% | -10% | -12%
O=C(NNC(=O)c1ccccc1O)c1ccc(Cl)cc1 | -1% | -8% | 3% | 18% | -9% | 18% | 4%
O=C(Nc1nnc(-c2ccccn2)o1)c1ccc(Br)cc1 | ? | 15% | 0% | 24% | -2% | -2% | -4%

Complete entries, looked up by structure. Order of values: LMNA splice mod	GoLoco inh red	TexasRed fluor	SMN2 splice enh	RECQ1 helicase	ALDH1A1 inh	TRb-SRC2 inh
Cc1ccccc1N1C(=O)CSC1=C(C#N)C#N reads ?	203%[activator]	26%	11%	-22%	3.5µM*	28%
O=C(NCC1CCCO1)c1cccnc1NCc1ccc(F)cc1 (configuration not stated) reads nt	12%	-2%	nt	-3%	?	3%

Other entries.
SMILES | LMNA splice mod | GoLoco inh red | TexasRed fluor | SMN2 splice enh | RECQ1 helicase | ALDH1A1 inh | TRb-SRC2 inh
O=c1cc(CO)oc(CN2CCN(c3ccccc3)CC2)c1O | 9% | -9% | -1% | -9% | -9% | 10% | -21%
CCN(CC)CCN1C(=O)C(O)=C(C(=O)c2cccs2)C1c1ccccn1 (configuration not stated) | -5% | -6% | 1% | -2% | 2% | 18µM* | 13%
CCN(CC(=O)Nc1cc(Cl)ccc1OC)CC(=O)NC1CCS(=O)(=O)C1 (configuration not stated) | nt | -1% | -3% | nt | 9% | nt | -6%
FC(F)(F)c1cc(-c2ccc(Cl)cc2)nc(NCc2cccnc2)n1 | ? | -1% | -3% | -40%[inhibitor] | -13% | ? | -9%

From PubChem BioAssay
